Screening data from PubChem BioAssay.
TRPML1 ag – qHTS for Agonists of the Human Mucolipin Transient Receptor Potential 1 (TRPML1). Mucolipin-1 (Homo sapiens), Q9GZU1. TRPML1-expressing cells, Ca2+ dye fluorescence, FDSS; host cell line not named in the record; reference of the full effect not given here. activation, % (concentration not given with the values). 410,000 tested, 0.12% active. AID 624414, 2012; in the data active = activation above about 50%; inconclusive = about 30% to 50%; inactive = below about 30%; also: 0% is about no effect; the text of the record puts the active cut at 80%
Target sequence (Q9GZU1 whole entry, looked up): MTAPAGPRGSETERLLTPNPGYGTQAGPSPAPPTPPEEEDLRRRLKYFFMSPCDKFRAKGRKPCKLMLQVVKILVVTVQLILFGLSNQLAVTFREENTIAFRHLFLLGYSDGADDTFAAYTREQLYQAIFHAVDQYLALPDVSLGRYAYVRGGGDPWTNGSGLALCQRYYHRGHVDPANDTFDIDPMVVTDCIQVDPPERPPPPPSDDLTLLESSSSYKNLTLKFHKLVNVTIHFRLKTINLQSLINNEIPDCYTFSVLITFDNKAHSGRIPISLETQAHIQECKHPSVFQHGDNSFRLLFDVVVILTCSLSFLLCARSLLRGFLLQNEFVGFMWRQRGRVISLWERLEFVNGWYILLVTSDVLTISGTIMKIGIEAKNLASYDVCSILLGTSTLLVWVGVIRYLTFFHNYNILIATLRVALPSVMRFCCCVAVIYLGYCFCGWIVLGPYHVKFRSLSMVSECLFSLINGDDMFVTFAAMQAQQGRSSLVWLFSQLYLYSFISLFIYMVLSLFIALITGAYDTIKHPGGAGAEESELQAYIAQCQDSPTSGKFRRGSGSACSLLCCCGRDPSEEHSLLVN
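Cells: TRPML1-DL, 1X Tet inducer, ~16 h at 37 degrees C/5% CO2. Dye: ABD Ca8 no-wash + quencher, 45-90 min RT. Read: 10 s baseline, compound add, 110 s agonist phase; 54-4 EC80 (4uM final), 110 s antagonist phase.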
D2 agonist – Beta-Arrestin HTS for Positive Allosteric Modulators of the Human D2 Dopamine Receptor: Agonists; DiscoveRx PathHunter D2 beta-arrestin, luminescence, 90 min; 100% = 57 uM dopamine signal; activation, % (no concentration beside the values); 360,000 tested, 0.084% active; AID 624465, 2012; in the data active = activation above about 40%; inconclusive = about 15% to 40%; inactive = below about 15%; also: compound concentration not given in the record; the text of the record calls up to 30% inactive
Target sequence (P14416 whole entry, looked up): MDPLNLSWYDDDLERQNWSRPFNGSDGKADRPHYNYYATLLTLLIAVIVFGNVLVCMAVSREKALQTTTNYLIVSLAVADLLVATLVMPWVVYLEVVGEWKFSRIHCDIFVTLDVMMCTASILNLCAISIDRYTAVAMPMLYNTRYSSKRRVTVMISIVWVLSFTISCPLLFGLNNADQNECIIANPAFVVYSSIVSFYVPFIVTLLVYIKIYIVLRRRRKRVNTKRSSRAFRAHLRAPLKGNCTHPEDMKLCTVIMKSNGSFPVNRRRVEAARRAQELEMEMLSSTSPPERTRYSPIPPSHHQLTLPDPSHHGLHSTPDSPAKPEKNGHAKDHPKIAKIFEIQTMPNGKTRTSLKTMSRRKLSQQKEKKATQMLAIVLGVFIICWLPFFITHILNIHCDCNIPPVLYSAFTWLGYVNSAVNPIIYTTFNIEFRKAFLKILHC
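Agonist mode: compounds alone added to overnight-plated D2 PathHunter cells for 90 min at 37 C, with 57 uM final dopamine (EC100) defining full response. Beta-arrestin recruitment detected by chemiluminescent reagent, read after 1 h at ambient temperature.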
PINK1 modulator – A Quantitative High throughput Screen to Identify Chemical Modulators of PINK1 Expression. PINK1 immunofluorescence, high-content cytometry, 24 h. Potency, µM (doses to about 76.6 µM), for inactives: top-dose activation (PINK1 increase), hits mostly activators. 410,000 tested, 0.2% active. AID 624263, 2012; active = well fitted activation curve with a large enough effect; inconclusive = small, poorly fitted or top-dose-only effect; inactive = flat fitted curve, though single readings scatter; cell line not stated here;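 also: potency is read from the fitted curve at half-maximal effect; % of control where 0% means no effect; nearly all actives have a fitted effect of over 65% in size; a mitochondrial uncoupler was the plate control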
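PINK1 protein level read as immunofluorescence by microplate cytometer in a fixed, stained stable cell line after 24 h exposure to five compound concentrations, with CCCP as control.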
Six1-Eya2 blk – qHTS Assay for Inhibitors of the Six1/Eya2 Interaction; AlphaScreen GST-Six1/His-Eya2 binding, biochemical; hits give low values; control for the full effect not named in the record; 360,000 tested, 0.56% active; activity change, % (no concentration beside the values); Homeobox protein SIX1 (Homo sapiens) + Protein phosphatase EYA2 (Homo sapiens), …; AID 651725, 2012; in the data active = activity change below about -65%; inconclusive = about -30% to -65%; inactive = above about -30%; also: % is scaled to controls: 0 for no effect and ±100 for the full control effect; compound concentration not given in the record
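Six1/Eya2 binding was read as AlphaScreen signal after compounds were pinned into GST-Six1 plus His-tagged Eya2 (5X stock 250/500 nM) in pH 8.0 Tris/NaCl/TCEP buffer, beads added, then incubated 1 h, 37 C, dark.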
D2 PAM – Beta-Arrestin HTS for Positive Allosteric Modulators of the Human D2 Dopamine Receptor: Potentiators. DiscoveRx D2 beta-arrestin cells, luminescence, 90 min; 100% = 57 uM dopamine signal. potentiation, % (no concentration beside the values). 360,000 tested, 0.23% active. AID 624464, 2012; active = potentiation of 50% or more; inconclusive = 30% to 50%; inactive = 30% or less;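 also: compound concentration not given in the record; tested on top of an EC20 dose of dopamine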
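D2 cells co-treated with compound plus 50 nM dopamine (EC20) for 90 min at 37 deg C to detect potentiation. Beta-arrestin recruitment was read as enzyme-fragment luminescence after 1 h at ambient temperature. Full response was set by 57 uM dopamine.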
CtBP-E1A blk – qHTS Assay for Inhibitors of the CtBP/E1A Interaction. CtBP / adenovirus E1A interaction (AlphaScreen). AlphaScreen GST-E1A/His-CtBP binding, 1536-well; hits give low values; control for the full effect not named in the record. activity change, % (no concentration beside the values). 340,000 tested, 0.49% active; in the data active means activity change below about -65%; inconclusive means about -30% to -65%; inactive means above about -30%; also: % is scaled to controls: 0 for no effect and ±100 for the full control effect; compound concentration not given in the record
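Protein mix (5X: 125 nM each GST-E1A, His-CtBP) was incubated with pinned compound 2 h at 37 deg C in dark, in 50 mM Tris pH 8.0 buffer with 300 mM NaCl. Glutathione donor and nickel acceptor beads followed; AlphaScreen signal read after 1 h.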
Numbers without * were called inactive; u = inconclusive; x = not tested or not shown; [ ] = another dose, or the depositor's remark.

SMILES | TRPML1 ag | D2 agonist | PINK1 modulator | Six1-Eya2 blk | D2 PAM | CtBP-E1A blk
O=C(CC(c1ccc(F)cc1)c1ccco1)N1CCOCC1 (stereo not drawn) | -0.6 | -2.6 | -3.2% | -2.3 | -2.1 | 4.9
CSc1nccc(Nc2ccccc2)c1C#N | 3.3 | -3.2 | 2.5% | 17.6 | -3.6 | -1.1
CN1CCN(c2nc3ccccn3c(=O)c2C=O)CC1 | 0.8 | -0.8 | -0.3% | 1.0 | -28.3 | 6.2
COc1ccc(OC)c(S(=O)(=O)N2CCC(C(=O)NCc3ccccn3)CC2)c1 | 0.1 | 2.2 | -1.4% | 9.2 | -8.1 | 1.8
Cc1c(C(=O)NN)[nH]c2ccc([N+](=O)[O-])cc12 | 0.3 | 6.3 | 3.9% | -13.2 | -7.9 | -7.1
Cc1ccc(S(=O)(=O)N2CCN(C(=O)COc3ccc(C)nc3[N+](=O)[O-])CC2)c(C)c1 | 0.6 | 1.1 | 1.2% | -4.5 | 8.1 | 5.7
COc1ccc(-c2cc(C(F)(F)F)n3ncc(C(=O)N4CCCCC4c4cccnc4)c3n2)cc1 (stereo not drawn) | 2.6 | -4.4 | 5.3% | -2.6 | -8.0 | -16.7
Cc1cc2cc(CNC(=O)CCC(=O)O)ccc2n1C | 0.5 | -2.6 | 1.5% | -0.2 | -5.1 | x
COc1ccc(-n2ncc3c(=O)n(CC(=O)OCc4ccccc4)cnc32)cc1 | 0.0 | 2.1 | 25.1%[38.3 µM] | -4.3 | -6.0 | 5.8
CCOC(=O)[C@]12CCCC=C1N(Cc1cccc3ccccc13)C(=O)[C@H](CC(=O)NCCc1ccccc1OC)C2 | 0.3 | x | -0.1% | -7.9 | x | -22.6
CCOc1ccc(CN2CCN(c3ncnc4scc(-c5ccccc5)c34)CC2)cc1 | -1.0 | -2.6 | 3.6% | -0.3 | -11.2 | 6.2
COc1cccc(NC2=NCC(=O)N2Cc2cccs2)c1 | 1.7 | -0.9 | 0.1% | -2.4 | 7.2 | -1.1
Clc1ccc(CSc2nnc(-c3ccncc3)o2)cc1 | -0.1 | -1.5 | x | 6.9 | -2.7 | 8.5
O=C(O)c1nc2ccccc2nc1C(=O)O | -0.9 | -0.9 | -0.5% | 3.0 | -7.1 | -2.6
COc1cc(Br)ccc1C1CC(=O)C(C)C(c2ccc(Br)cc2OC)N1 (stereo not drawn) | 2.4 | -0.7 | 2.8% | -2.6 | -3.6 | -6.5
Cc1cccc(C)c1NC(=O)C1(C)CCC(=O)N1CCCn1ccnc1 (stereo not drawn) | 1.2 | 4.5 | 0.7% | 5.2 | 2.8 | 8.5
CCn1c(CCCOc2ccc(Cl)cc2Cl)nnc1SCC(=O)Nc1cc(F)ccc1C | 3.8 | 5.9 | 3.4% | 1.6 | -3.8 | 6.8
CC(C)(CNC(=O)c1ccc(Cl)c(S(=O)(=O)N2CCc3ccccc3C2)c1)N1CCOCC1 | -0.5 | -1.8 | 0.2% | 1.6 | -10.0 | x
CNC(=O)c1c2c(nc3ccc(Br)cc13)CCCC2 | 1.6 | -0.9 | 2.2% | 7.0 | -5.7 | 2.7
c1ccc(CCc2ccncc2)cc1 | -0.1 | -2.5 | 1.4% | 5.6 | 0.5 | 6.7

Three compounds from above, sorted by their value in PINK1 modulator, rising.
SMILES,D2 agonist,PINK1 modulator,Six1-Eya2 blk,D2 PAM,CtBP-E1A blk
CC(C)(CNC(=O)c1ccc(Cl)c(S(=O)(=O)N2CCc3ccccc3C2)c1)N1CCOCC1,-1.8,0.2%,1.6,-10.0,x
Cc1cc2cc(CNC(=O)CCC(=O)O)ccc2n1C,-2.6,1.5%,-0.2,-5.1,x
CSc1nccc(Nc2ccccc2)c1C#N,-3.2,2.5%,17.6,-3.6,-1.1

Further compounds follow:
SMILES | TRPML1 ag | D2 agonist | PINK1 modulator | Six1-Eya2 blk | D2 PAM | CtBP-E1A blk
Cc1cnc(NC(=O)[C@H](C)N2C(=O)C3CCCCC3C2=O)s1 (stereo partly drawn) | -0.9 | 4.3 | 0.1% | -7.2 | -10.6 | -22.5
C=CCc1c(C)nc2ccc(C(=O)OCC)cc2c1Cl | 0.7 | 1.2 | 3.5% | 7.4 | 2.5 | 15.8
CCC(N=c1cc(-c2ccc(OC)cc2)oc2ccc(C)cc12)C(=O)O (stereo not drawn) | -0.4 | -5.7 | 2.7% | -2.5 | -10.0 | -15.8
CC(C)(C)c1nnc(NC(=O)CCC2CCCCC2)s1 | -0.2 | -2.0 | 5.4% | -0.7 | -1.0 | 2.3
CCCCN1C=C(C(=O)OC)C(c2ccccc2Cl)C(C(=O)OC)=C1 | 2.5 | -2.9 | 1.2% | 11.1 | -1.1 | x
FC(F)(F)c1cnc(N2CCN(C(=S)NCc3ccccc3)CC2)c(Cl)c1 | 2.8 | -5.6 | u | 15.9 | -0.1 | -1.6
CCOC(=O)C1CCN(c2ncnc3c2oc2ccc(Cl)cc23)CC1 | -0.4 | -0.6 | 9.9% | 6.5 | -0.8 | 2.0
O=C(CCNC(=O)c1ccco1)Nc1ccccc1OC(F)F | 0.7 | -1.6 | -1.6% | 8.9 | -7.0 | 4.4
Cc1ccc2cc(CN(CCN3CCOCC3)C(=O)NCc3ccccc3)c(=O)[nH]c2c1C | -0.2 | -1.1 | -1.3% | 5.3 | -3.9 | 0.0
CCOC(=O)C1(Cc2cccc(OC)c2)CCCN(Cc2ccc(NC(C)=O)cc2)C1 (stereo not drawn) | -1.1 | -4.7 | -0.6% | -10.4 | -2.1 | x
CCc1noc(C)c1C(=O)Nc1ccc(F)c(F)c1F | 0.2 | 5.4 | -0.2% | -7.1 | -20.2 | 13.3
COCCN(Cc1ccccc1)P(=O)(O)c1ccccc1OCC(=O)O | -0.4 | -4.1 | 1.5% | -8.6 | -10.5 | 11.6
O=C(C1CC=CCC1)N1CCCCCC1 (stereo not drawn) | -0.9 | -2.4 | -0.8% | 5.6 | -3.0 | 0.8
COc1ccc(CCC(=O)Nc2cc(Cl)ccc2N2CCN(C)CC2)cc1 | 0.4 | -2.3 | 8.1% | -0.7 | -25.2 | -2.3
Cc1cccc2nc(CSc3nc4ccc([N+](=O)[O-])cc4[nH]3)c(Br)n12 | 0.6 | -3.0 | 0.6% | -22.1 | -20.0 | -0.3
O=C1CCC(C(=O)N2CCCC(Nc3ccc(F)cc3)C2)=NN1 (stereo not drawn) | 0.7 | -3.3 | 2.3% | 5.9 | -3.6 | -5.3
Cc1cc(C)c(OCC(=O)Nc2ccccc2N2CCCCC2)c(C)c1 | -0.2 | -3.6 | u | 0.6 | -24.9 | 5.2
O=C(COC(=O)c1cc(S(=O)(=O)N2CCOCC2)c(Cl)cc1Cl)Nc1ncc(C(F)(F)F)cc1Cl | 0.7 | -1.6 | 14.4% | 3.4 | -0.4 | -0.8
O=S(=O)(c1cccs1)N1CN(CC2CCCO2)c2nc3ccccc3nc21 (stereo not drawn) | -0.8 | -0.3 | 2.0%[38.3 µM] | -1.3 | -3.6 | 1.0
COc1ccc(-c2nc(CCNC(=O)c3ccco3)cs2)cc1OC | 0.8 | 3.8 | -0.7% | -25.4 | 0.3 | -2.6
CC(NC(=O)/C(C#N)=C1\N=C(NC(=O)c2cccs2)c2ccccc21)c1ccccc1 (stereo not drawn) | 0.3 | -1.6 | -0.4% | -23.1 | -19.4 | -24.4
Cc1ccccc1OCc1nnc(SCCN2CCCC2)n1-c1ccccc1 | 0.2 | -2.5 | 1.1% | -8.4 | -16.7 | -7.8
CC(=NCCCn1ccnc1)C1=C(O)c2ccccc2C1=O | 0.3 | 1.0 | -0.7%[38.3 µM] | -9.7 | -10.5 | 2.6
CCO[C@@H]1OC(C(=O)NCc2ccccc2)=C[C@H](c2csc3ccccc23)[C@H]1CCCO | 4.9 | -0.1 | -0.7% | -1.9 | -6.7 | 1.9
Cc1cccc(NCc2ccc(O)c3ncccc23)c1C | 0.2 | -6.4 | 15.8µM* | -73.7* | 5.6 | -89.3*
Cc1cc2c(c(=O)o1)C1(C)CC(C)(O2)c2c(cc(C)oc2=O)O1 | 0.0 | x | 0.1% | 1.3 | x | 3.8
Cc1csc2nc(COC(=O)CNC(=O)c3ccc(Cl)cc3)cc(=O)n12 | -1.1 | 1.7 | 1.7% | -3.0 | -23.6 | x
COC(=O)C1=C(C)Nc2ncnn2C1c1ccc(OCc2ccccc2)cc1 (stereo not drawn) | -1.1 | -2.7 | 2.1% | -1.6 | -17.0 | 0.8
O=C(NCc1cccs1)C1CCN(c2nc3ccccc3o2)CC1 | 1.5 | 2.3 | 17.9% | -0.6 | -1.6 | -0.5
Fc1cccc(NC(=S)NNc2c3ccccc3nc3ccccc23)c1 | 0.6 | -5.0 | u | u | -13.9 | -2.9
COc1ccc(OC(=O)C2CC(=O)N(c3ccc(C)cc3)C2)cc1 (stereo not drawn) | -0.6 | -0.7 | 0.1% | 3.6 | -1.8 | -5.2
CCC(=O)NCc1c(Cl)cccc1-n1cccc1 | -0.1 | -2.4 | 0.0%[38.3 µM] | -0.5 | -8.8 | -0.2
CN1CCCN(C2C3CC4CC(C3)CC2C4)CC1 (stereo not drawn) | 0.1 | -1.9 | -1.4% | -1.4 | -19.5 | -7.0
S=c1[nH]nc(Cc2cccs2)n1-c1cccc2ccccc12 | -0.1 | 2.9 | 0.2% | -0.8 | 1.7 | -5.5
C=CCOc1ccc(/C=C2\SC(=S)N(C(C(=O)O)c3ccccc3)C2=O)cc1 (stereo not drawn) | -0.1 | -1.8 | 1.3% | -0.7 | -3.0 | -5.1
CC(C)Nc1nc(NC(C)C)nc(Oc2ccc(/C=N/O)cc2)n1 | 0.9 | -4.5 | 4.3% | -13.0 | -7.4 | -8.2
CCOC(=O)c1sc(NC(=O)CCN2CCC(C)CC2)c(C(=O)OCC)c1C | -0.3 | -2.0 | 6.3% | -17.2 | -8.7 | 4.9
O=C(NCC(=O)N1CCN(S(=O)(=O)c2ccc3c(c2)OCCO3)CC1)c1ccccc1Cl | 0.8 | 1.5 | 0.5% | 8.8 | -1.5 | -2.3
Cc1onc(-c2ccccc2Cl)c1C(=O)NCC1CCCO1 (stereo not drawn) | 0.5 | 0.7 | -0.7%[38.3 µM] | 0.9 | 1.6 | 6.7
O=C(c1ccc(Cl)c([N+](=O)[O-])c1)N1CCN(c2ccccc2)CC1 | -0.5 | 1.0 | 10.0% | -7.7 | 0.5 | 3.1
COc1ccc(-n2c(SCC(=O)N3CCCCC3)nc(O)cc2=O)cc1 | -0.1 | -0.6 | 9.2%[38.3 µM] | -21.0 | 0.8 | -19.2
